Vaccinia pol inh – vaccinia E9 polymerase processive synthesis inhibitors, primary screen, biochemical, absorbance; Vaccinia virus DNA polymerase (E9) processive complex; normalized absorbance, % (no concentration beside the values); in vitro processive DNA synthesis, absorbance read-out; stronger effect = lower value; some inactives read as strong as hits; 46,000 tested, 0.94% active;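 active means replicate mean up to 90% and picked by the depositor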;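 further: 100% = median of the test wells of a plate; 100 nL library stock went into each well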
* marks the source's active call; other numbers are inactive results. An excerpt (hit frequency here may not be typical).

For Cc1cccc(C(=O)NCCn2ccc3ccccc32)c1 the results were Vaccinia pol inh 96.3.
Screening NC(=S)Nc1ccc(C(F)(F)F)cc1Cl returned Vaccinia pol inh 100.9.
Screening CCC(C)OC(=O)CSc1ncnc2sc3c(c12)CCC(C)C3 (stereo not drawn) returned Vaccinia pol inh 100.4.
Screening Cc1cccc(C)c1NC(=O)c1cnc(NC2CCCCC2)cc1C(F)(F)F returned Vaccinia pol inh 104.2.
For Cc1ccc(CNC(=O)Nc2ccc3c(c2)N(C)C(=O)c2ccccc2S3)cc1 the results were Vaccinia pol inh 103.2.
For O=C1CSC(c2ccccc2)N1CCc1ccccc1 (stereo not drawn) the results were Vaccinia pol inh 99.6.
For c1ccc(Nc2nc(Nc3ccccc3)nc(Oc3ccccc3)n2)cc1 the results were Vaccinia pol inh 102.2.
For COc1ccc(-c2cnnn2-c2ccc(N)cc2)cc1 the results were Vaccinia pol inh 104.1.
`CSc1nnc(CNC(=O)COc2ccccc2)n1-c1ccc(F)cc1` gave Vaccinia pol inh 100.2.
For CCc1ccc(NC(=O)C2CC(=O)n3c(nc4ccccc43)N2)cc1 (stereo not drawn) the results were Vaccinia pol inh 102.1.
`Cc1cc(C)c2c(CC(=O)Nc3nc(C)c(C(=O)OCC(C)C)s3)coc2c1` gave Vaccinia pol inh 94.1.
`CCOC(=O)c1cnn(-c2ccccc2)c1NC(=O)c1ccccc1F` gave Vaccinia pol inh 100.1.
For O=C(CC(=O)Nc1ccccc1Cl)Nc1ccccc1Cl the results were Vaccinia pol inh 78.3.
CC(C)n1c2ccccc2c2nnc(SCCCC(=O)c3ccc(F)cc3)nc21 was read as Vaccinia pol inh 104.4.
For O=C(O)CC1C(=O)OCN1C(=O)OCc1ccccc1 (stereo not drawn) the results were Vaccinia pol inh 99.9.
For CCCn1cc(SCC(=O)NCc2ccco2)c2ccccc21 the results were Vaccinia pol inh 99.4.
For CC1Cc2cc(S(=O)(=O)N(C)CC(=O)N3CCOCC3)ccc2N1C(=O)C1CC1 (stereo not drawn) the results were Vaccinia pol inh 97.6.
Screening CC1C/C(=C/c2ccco2)C(C)N(C)C1 (stereo not drawn) returned Vaccinia pol inh 103.8.
For COc1cccc(NC(=O)Cn2c(=O)c3cccn3c3ccccc32)c1 the results were Vaccinia pol inh 103.7.
O=C(O)CC(=O)Oc1ccc(F)cc1 was read as Vaccinia pol inh 97.0.
O=C(NCc1ccccc1)C1CCN(c2nnc(-n3cccc3)s2)CC1 was read as Vaccinia pol inh 103.0.
Screening NC(=O)c1cc(Cl)c(C(N)=O)cc1Cl returned Vaccinia pol inh 89.4.
Screening O=C1NC(=Nc2ccccc2)CS1 returned Vaccinia pol inh 100.0.
Screening COc1ccc(CCN(Cc2ccccn2)S(=O)(=O)c2ccc(C(C)(C)C)cc2)cc1OC returned Vaccinia pol inh 116.0.
`CCc1ccc(-n2nc3ccc(NC(=O)c4ccccc4Br)cc3n2)cc1` gave Vaccinia pol inh 99.6.
Screening Cc1ccc(S(=O)(=O)N2CCN(S(=O)(=O)N(C)C)CC2)cc1 returned Vaccinia pol inh 99.1.
`Cc1cc(C)nc(N2Cc3ccccc3C2=N)n1` gave Vaccinia pol inh 69.0*.
For c1ccc(Nc2ncnc3nc[nH]c23)cc1 the results were Vaccinia pol inh 101.2.
For CCC(Sc1ccc2nnc(-c3ccc(C)cc3)n2n1)C(=O)O (stereo not drawn) the results were Vaccinia pol inh 99.7.
Cc1ccc(S(=O)(=O)c2ccc(C)cc2)cc1 was read as Vaccinia pol inh 99.3.

Structural class, those above containing fluorine (6)
Screening NC(=S)Nc1ccc(C(F)(F)F)cc1Cl returned Vaccinia pol inh 100.9.
Screening Cc1cccc(C)c1NC(=O)c1cnc(NC2CCCCC2)cc1C(F)(F)F returned Vaccinia pol inh 104.2.
`CSc1nnc(CNC(=O)COc2ccccc2)n1-c1ccc(F)cc1` gave Vaccinia pol inh 100.2.
`CCOC(=O)c1cnn(-c2ccccc2)c1NC(=O)c1ccccc1F` gave Vaccinia pol inh 100.1.
CC(C)n1c2ccccc2c2nnc(SCCCC(=O)c3ccc(F)cc3)nc21 was read as Vaccinia pol inh 104.4.
O=C(O)CC(=O)Oc1ccc(F)cc1 was read as Vaccinia pol inh 97.0.

New compounds follow
Screening Cc1c(C(=O)Nc2ccccc2)cc(-c2ccccc2)n1-c1ccccc1 returned Vaccinia pol inh 97.1.
`CN(C)c1cccc(C(=O)OCC(=O)c2ccc(F)cc2)c1` gave Vaccinia pol inh 104.6.
For O=C(NC1CCCC1)C1CCN(S(=O)(=O)c2ccc3nc(-c4ccccc4)[nH]c3c2)CC1 the results were Vaccinia pol inh 94.1.
For O=C(NCC1CCCO1)c1ccc(/C=N/O)nc1 (stereo not drawn) the results were Vaccinia pol inh 106.7.
Screening O=C1C(=Nc2ccc(F)cc2)c2ccccc2N1c1ccccc1 returned Vaccinia pol inh 107.3.
CCSC1(SCC)N=C(N)C2(C#N)C(c3ccc(OC)cc3)C12C#N (stereo not drawn) was read as Vaccinia pol inh 100.0.
O=C(NO)c1ccccc1C(F)(F)F was read as Vaccinia pol inh 95.1.
`O=C1CC(Nc2ccccc2)C(=O)N1c1ccccc1Cl` (stereo not drawn) gave Vaccinia pol inh 99.5.
`O=c1oc2ccccc2c(O)c1Cc1c(O)c2ccccc2oc1=O` gave Vaccinia pol inh 100.4.
COc1ccc2c(C)cc(=O)[nH]c2c1 was read as Vaccinia pol inh 99.5.
`COc1ccc(NC(=O)c2cc3ccccc3oc2=O)cc1` gave Vaccinia pol inh 100.0.
For CC(C)(C)NC(=O)CCN1C(=O)/C(=C/c2ccccc2)SC1=S the results were Vaccinia pol inh 101.7.
Screening O=C(Cc1cccs1)NC1C(=O)N2C(C(=O)[O-])=C(C[n+]3ccccc3)CSC12 (stereo not drawn) returned Vaccinia pol inh 90.0.
For Cc1ccc(NC(N)=O)cc1 the results were Vaccinia pol inh 88.6.
CCN(CC)C(=O)c1cc(-c2ccccc2)n[nH]1 was read as Vaccinia pol inh 104.4.
For O=C1C=CC(=C(c2ccc(O)cc2)c2ccc(O)cc2)C=C1 the results were Vaccinia pol inh 98.6.
`CCCCn1c(CNC(=O)C(C)(C)C)nc2ccccc21` gave Vaccinia pol inh 100.5.
CC(Oc1ccc(F)cc1)C(=O)Oc1ccc(Br)cc1 (stereo not drawn) was read as Vaccinia pol inh 108.3.
For Nc1nc(-c2ccc(OCc3ccc(Br)cc3)cc2)cs1 the results were Vaccinia pol inh 98.5.
Screening NC(=O)CCN1C(=O)C2C3C=CC(C3)C2C1=O (stereo not drawn) returned Vaccinia pol inh 99.8.
For CC1(C)CC(NC(=O)c2ccncc2)CC(C)(C)N1O the results were Vaccinia pol inh 101.0.
N#CC1=C(N)S[C@H](C(=O)c2ccccc2)[C@H]1c1ccc(Br)c(F)c1 was read as Vaccinia pol inh 92.8.
For Cc1ccc(NC(=O)c2cccc3c2C(=O)c2ccccc2-3)cc1 the results were Vaccinia pol inh 100.4.
Screening N=Cc1c(C(F)(F)F)[nH]n(-c2nc3ccccc3s2)c1=O returned Vaccinia pol inh 100.5.
For Cc1nn(C(=O)c2cccnc2)c(C)c1Sc1ccccc1 the results were Vaccinia pol inh 100.8.
For O=C(c1cccs1)c1coc2ccc(O)c(CN(CCO)CCO)c12 the results were Vaccinia pol inh 99.7.
CN(C)c1nc(-c2ccc(Cl)cc2)[nH]c(=O)n1 was read as Vaccinia pol inh 97.1.
CC(C)(CO)NCC(O)Cn1c2ccccc2c2ccccc21 (stereo not drawn) was read as Vaccinia pol inh 65.0*.
CN(CCC#N)c1ccc(/C=C2/N=C(c3ccccc3)OC2=O)cc1 was read as Vaccinia pol inh 104.7.
N#CC(C(=Nc1ccccc1)SCc1ccc(Cl)cc1)c1nc2ccccc2[nH]1 (stereo not drawn) was read as Vaccinia pol inh 101.3.
For CCc1ccc(NC(=O)NCCCN2CCCc3ccccc32)cc1 the results were Vaccinia pol inh 100.9.
`CC(C)CC(NS(=O)(=O)c1ccc2[nH]c(=O)c(=O)[nH]c2c1)C(=O)O` (stereo not drawn) gave Vaccinia pol inh 107.3.
O=C(OCC(=O)N1CCc2ccccc2C1)c1ccc(Br)o1 was read as Vaccinia pol inh 100.4.
Screening Cc1onc(-c2ccccc2)c1NC(=O)N(Cc1ccccc1)C(C)C returned Vaccinia pol inh 102.1.
COc1ccc(OCC(=O)NCc2nc3ccccc3[nH]2)cc1 was read as Vaccinia pol inh 102.8.
For CC1(C)Cc2ccccc2/C(=C/C(=O)Nc2ccccc2)N1 the results were Vaccinia pol inh 86.2*.
For O=S(=O)(/C=C/c1ccccc1)NCc1ccccc1 the results were Vaccinia pol inh 99.6.
CN1CCC(N(C)C(=O)c2cc3ccccc3oc2=O)CC1 was read as Vaccinia pol inh 98.9.
For c1ccc(CSc2nnnn2-c2ccccc2)cc1 the results were Vaccinia pol inh 100.3.
`CN(C)C1(c2nnnn2CCOC(=O)Nc2ccc(Cl)cc2)CCCCC1` gave Vaccinia pol inh 101.7.
O=C(CSc1ccccc1)N1CCCCCC1 was read as Vaccinia pol inh 93.9.
`NC(=NCCCCCCN=C(N)/N=C(\N)Nc1ccc(Cl)cc1)/N=C(\N)Nc1ccc(Cl)cc1` gave Vaccinia pol inh 100.3.
CC(C)OC(=O)N(C)c1ccc(C(O)(C(F)(F)F)C(F)(F)F)cc1 was read as Vaccinia pol inh 99.6.
N#CC1=C(SCC(=O)NC2CCCCC2)NC(=O)CC1c1ccc(F)cc1 (stereo not drawn) was read as Vaccinia pol inh 101.2.
CN1/C(=C\C=C2C(=O)c3ccccc3C2=O)Sc2ccccc21 was read as Vaccinia pol inh 103.8.
CC(=NCCc1ccc(F)cc1)C1=C(O)c2ccccc2C1=O was read as Vaccinia pol inh 100.4.
For NC1=CC(=O)CC(c2ccc(Cl)cc2)C1 (stereo not drawn) the results were Vaccinia pol inh 97.5.
Screening O=C(Nc1cccc(C(F)(F)F)c1)NC1(c2ccccc2)CC1 returned Vaccinia pol inh 100.2.
Screening CCOc1ccc(N2CC(C(=O)O)CC2=O)cc1 (stereo not drawn) returned Vaccinia pol inh 91.1.
For N#C/C(=C(/O)COc1ccccc1)c1nc2ccccc2[nH]1 the results were Vaccinia pol inh 99.8.
`O=S(=O)(c1cccs1)N1CCCCC1` gave Vaccinia pol inh 101.5.
Screening COc1cc(Cl)c(C)cc1NC(=S)N(CCN(C)C)C(C)c1ccco1 (stereo not drawn) returned Vaccinia pol inh 95.9.
`CCN(CC)c1nc2ccccc2[nH]1` gave Vaccinia pol inh 101.1.
Screening COc1ccc(S(=O)(=O)CCC(=O)N(C)c2ccc(OC)cc2OC)cc1 returned Vaccinia pol inh 98.2.
`CCOC(=O)Cn1c2c(sc1=N)CC(C(C)(C)C)CC2` (stereo not drawn) gave Vaccinia pol inh 99.6.
O=C(c1cc2ccccc2oc1=O)N1N=C(c2ccccc2)CC1c1ccccc1 (stereo not drawn) was read as Vaccinia pol inh 89.8.
`CCOC(=O)C1=C(O)/C(=C/c2cccs2)SC1=Nc1ccccc1` gave Vaccinia pol inh 99.4.
For CCOC(=O)c1cnc2ccc(C(=O)OC)cc2c1NCCN(C)C the results were Vaccinia pol inh 51.5*.
O=C(NCc1ccccc1)c1ccc2c(c1)N(Cc1ccccc1)CCS2 was read as Vaccinia pol inh 91.6.
Screening COC(=C(C#N)C#N)c1ccccc1 returned Vaccinia pol inh 83.9.
`COc1ccc(-c2nc(C#N)c(N3CCN(C)CC3)o2)cc1` gave Vaccinia pol inh 100.2.
Screening Cc1[nH]c2ccccc2c1C(=O)CSC(=S)N1CCCCC1 returned Vaccinia pol inh 99.9.
For CCOc1ccc2cc(S(=O)(=O)N3CCCCCC3)ccc2c1 the results were Vaccinia pol inh 99.4.
For CC(C)[C@@H]1CC[C@@H](C)C[C@@H]1OC(=O)C(O)C(O)C(=O)O[C@H]1C[C@H](C)CC[C@H]1C(C)C (stereo partly drawn) the results were Vaccinia pol inh 100.8.
Screening COc1ccc2c(c1)c(=O)oc1cc(O)ccc12 returned Vaccinia pol inh 99.9.
For O=c1[nH]nc(CSc2ccc(Cl)cc2)c2ccccc12 the results were Vaccinia pol inh 103.3.
Screening CN(C)CCCN1C(=O)C2C3C=CC(C3)C2C1=O (stereo not drawn) returned Vaccinia pol inh 99.9.
For Cc1cc(OCC(=O)Nc2nnn(C)n2)ccc1Cl the results were Vaccinia pol inh 85.1.
Screening COc1ccccc1C1CCN(C(=O)c2scc(S(=O)(=O)c3ccc(Cl)cc3)c2C)CC1 returned Vaccinia pol inh 101.3.
Cc1cc(C)n(C(=O)Cc2cn3ccsc3n2)n1 was read as Vaccinia pol inh 103.5.

Continued, starting with the last 3 of the part before.
For Cc1cc(OCC(=O)Nc2nnn(C)n2)ccc1Cl the results were Vaccinia pol inh 85.1.
Screening COc1ccccc1C1CCN(C(=O)c2scc(S(=O)(=O)c3ccc(Cl)cc3)c2C)CC1 returned Vaccinia pol inh 101.3.
Cc1cc(C)n(C(=O)Cc2cn3ccsc3n2)n1 was read as Vaccinia pol inh 103.5.
CSC1=C(C#N)C(=O)NC(c2ccc(Cl)cc2)S1 (stereo not drawn) was read as Vaccinia pol inh 95.0.
For CN1C2CC[C@@H]1CC(OC(=O)[C@H](CO)c1ccccc1)C2 (stereo partly drawn) the results were Vaccinia pol inh 100.2.
COC(=O)c1sccc1OCc1ccccc1 was read as Vaccinia pol inh 110.0.
`Nn1c(CSc2nc3ccccc3o2)nnc1CSc1nc2ccccc2o1` gave Vaccinia pol inh 98.5.
Cc1nc(-c2ccc(-c3cccs3)s2)sc1-c1ccnn1C(=O)C(C)(C)C was read as Vaccinia pol inh 96.0.
Screening O=C(CCCn1nc(-c2ccccc2)c2cc(Cl)ccc21)Nc1ccc(F)cc1 returned Vaccinia pol inh 97.0.
Screening CC(C)NC(=O)N1CCc2sccc2C1c1ccc(Cl)cc1 (stereo not drawn) returned Vaccinia pol inh 99.8.
Screening O=C(NC1CCCC1)c1cc2c(s1)CS(=O)(=O)C2 returned Vaccinia pol inh 103.4.

Screens from PubChem BioAssay.
